RE007 growth inh = less growth of the S. pombe RE007 Vpr strain | S. pombe RE007 Vpr strain, BacTiter-Glo ATP luminescence, 24 h; control for the full effect not named in the record | Potency, µM (series often up to 92.2 µM), for the others: at the highest dose activity change, negative = less growth | 360,000 tested, 0.21% active | AID 651644; active = well fitted falling curve with a large enough effect; inconclusive = small, poorly fitted or top-dose-only effect; inactive = no such curve, though single readings can be large or run the other way;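 also: nearly all actives have a fitted effect of over 50% in size; the assay follows cell death caused by Vpr and the record does not say whether a fall means rescue or toxicity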
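Fission yeast RE007 carrying one integrated HIV-1 vpr copy, seeded at OD 0.01 in PMG+AL medium with 23 nL pinned compound. Grown 24 h at 30 degrees; viability read by BacTiter-Glo luminescence after 5 min.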
StopGo reporter = lowers the luciferase signal of an FMDV 2A StopGo reporter. human cells with a luciferase reporter of 2A StopGo recoding; control for the full effect not named in the record. Potency, µM (highest dose often 57.9 µM), for inactives: at the highest dose signal change, negative = less light. 410,000 tested, 1.2% active. AID 1159524; active = well fitted falling curve with a large enough effect; inconclusive = small, poorly fitted or top-dose-only effect; inactive = no such curve, though single readings can be large or run the other way; tested in HEK293T cells; also: nearly all actives have a fitted effect of over 45% in size; luciferase light after 4 h
* marks the source's active call; other numbers are inactive results; ? = inconclusive; [ ] = another dose, or the depositor's remark. % is scaled to controls: 0 for no effect and ±100 for the full control effect; potency is read from the fitted curve at half-maximal effect. Some of the compounds tested; the hit share may differ from the screen's.

Values run as follows: RE007 growth inh | StopGo reporter
1. C[C@@H]1CCCCO[C@H](CN(C)C(=O)Cc2ccccc2)[C@@H](C)CN([C@H](C)CO)C(=O)c2cc(N(C)C)ccc2O1
  -1% | -19%
2. COc1ccc(OC)c(NC(=O)C2(C)CCN2C(=O)Cc2ccc(Cl)cc2Cl)c1 (stereo not given)
  -10%[18.4 µM] | -15%
3. NC(=O)C(NN=C(c1ccccc1)c1ccccc1)c1ccccc1 (stereo not given)
  -19% | -2%
4. COc1ccc(CN(C)C[C@@H]2OCCCC[C@H](C)Oc3ccc(NC(=O)Cc4ccccc4)cc3C(=O)N([C@@H](C)CO)C[C@@H]2C)cc1
  -1% | -22%
5. Cc1c(C(=O)NCc2ccccc2C(F)(F)F)sc(=O)n1Cc1ccc(F)cc1
  -27%[18.4 µM] | -20%
6. CC(=O)Nc1ccc(CC(=O)Nc2ccc3c(c2)OC2(CCCC2)O3)cc1
  7% | 19%
7. O=C(CCNC(=O)N1CC(=O)Nc2ccccc21)NCc1ccc(Cl)cc1
  2% | 0%
8. Cc1ccc(/C(N)=N/OC(=O)COc2cccc3ccccc23)cc1
  -5% | 11%
9. O=C(NCC1CC1)c1cc2c(c(-c3cccc(-c4ccccc4F)c3)n1)[C@H](CCO)N(C(=O)CC1CC1)C2
  12% | -14%
10. COc1cccc(-c2cnc3c(NC=O)cc(-c4cc(C)c(O)c(C)c4)cn23)c1
  -6%[18.4 µM] | -14%
11. COc1ccc(/C=C/C(=O)OCC(=O)N2c3ccccc3CC2C)cc1 (stereo not given)
  9% | 0%
12. COc1ccc(CN2C(=O)C(CC(=O)NCc3ccco3)CC(C(=O)N3CCOCC3)=C2C)cc1 (stereo not given)
  26% | -20%
13. COc1ccc([C@H]2N[C@]3(CCCN(Cc4cccn4C)C3=O)[C@H]3C(=O)N(C)C(=O)[C@@H]23)cc1
  3% | -17%
14. Cc1ccc(Cn2c(C3CCCN3c3nc(-c4ccc(F)cc4)cs3)nc3cc(Cl)c(Cl)cc32)cc1 (stereo not given)
  2% | -7%
15. Cc1ccc(S(=O)(=O)NN=Cc2ccco2)cc1
  17% | 106%[activator]
16. O=C(Nc1ccc(F)cc1)c1cnccn1
  -11% | 13%
17. COc1ccccc1CNc1nc(NCc2cnc(C)cn2)c2sccc2n1
  -1% | -21%
18. CCc1nc2ccc(C(=O)NCCCn3ccnc3)cn2c1N(CC)CCOC
  -22%[18.4 µM] | -18%
19. COc1ccc(-c2oc3c(c2C#CC2(O)CCCCC2)C(OC)CCC3)cc1 (stereo not given)
  5% | -5%
20. COc1ccc(-c2nc3ccc(Br)cn3c2Cc2ccsc2)cc1OC
  -16% | 7%
21. CCOC(=O)c1ccc(NC(=O)c2nc[nH]c2C(=O)N(C)CCO)cc1
  -6% | -9%
22. COC(=O)[C@@](C)(O)C1(C(=O)SC(C)(C)C)CC1
  1% | -9%
23. CC1(C(=O)NS(=O)(=O)c2ccc(F)cc2F)CCN1C(=O)c1ccccc1CCc1ccccc1 (stereo not given)
  10%[18.4 µM] | -9%
24. COc1ccc(CN2CCC[C@]3(N[C@H](c4ccc(C)cc4)[C@@H]4C(=O)N(C)C(=O)[C@@H]43)C2=O)cc1
  1% | -11%
25. CCOC(=O)[C@]12CCCC=C1N(Cc1ccccc1)C(=O)[C@H](CC(=O)NCc1ccc(C)o1)C2
  0% | -5%
26. CC(C)C[C@H]1CN([C@@H](Cc2ccc(O)cc2)CN2CCCC2CN2C(=S)NC[C@@H]2Cc2ccccc2)C(=S)N1CC1CCCCC1 (stereo not given in full)
  -11% | -20%
27. COc1ccc(Cc2c(C3CCCCC3)nc3ccc(Br)cn23)c(C)c1
  -8% | -3%
28. COc1ccc(-c2csc(NC(=O)CS(=O)(=O)c3ccccc3)n2)c(OC)c1
  5% | -20%
29. CCOc1ccc(C2=CC(c3ccccc3)n3ncnc3N2)cc1 (stereo not given)
  8% | -7%
30. Cc1cc(CNC(=O)C2(C(F)(F)F)C/C(=C\CCO)CCCO2)nn1C (stereo not given)
  -5% | -6%
31. COc1ccccc1CNCCS(=O)(=O)NCc1ccccc1
  2% | -13%
32. OC(c1ccc2ccccc2c1)c1ncc(-c2ccc(C(F)(F)F)cc2)[nH]1 (stereo not given)
  29% | -16%
33. CC1(C)Oc2cc3oc(-c4cc(O)cc(O)c4)cc3cc2CC1O (stereo not given)
  -6% | 11µM*
34. OCCN1CCN(c2ncnc3c2ncn3[C@H]2CN(Cc3cccs3)C[C@@H](CO)O2)CC1
  -3% | -23%
35. COP(=O)(NC(C)=O)SC (stereo not given)
  0% | -10%
36. COc1ccc(C(=O)N2CCCCC2c2cc(C(=O)NCc3cccnc3)no2)cc1 (stereo not given)
  12% | -6%
37. CC(C)NC(=O)N1Cc2cc(C(=O)NCC(F)(F)F)nc(-c3cccc(-c4cc5ccccc5o4)c3)c2[C@@H]1CCO
  -18% | 0%
38. O=C(NCC1CCCCC1)NCC1CCCCC1
  4% | 36%[activator]
39. CCOC(=O)C1=C(C)N(Cc2ccccc2)C(=O)NC1c1ccccc1OS(=O)(=O)c1ccccc1[N+](=O)[O-] (stereo not given)
  4% | ?
40. CN1CCC(N2CCN(C3CN(Cc4ccccc4)S(=O)(=O)C3)CC2)CC1 (stereo not given)
  -4% | -9%
41. COc1cc(NC(=O)Nc2nc(C(N)Cc3ccc(C(F)(F)F)cc3)cs2)cc(OC)c1OC (stereo not given)
  17% | -22%
42. CCCCN(C=O)c1c(CC)nc2ccc(C(=O)Nc3cc(-c4ccccc4)ccc3OC)cn12
  -1%[18.4 µM] | -27%
43. CC1(c2nc3ccccc3[nH]2)c2ccccc2C(=O)N1C1CC1 (stereo not given)
  6% | -24%
44. O=C(Nc1ccc(F)c(Cl)c1)c1cc(C2CCCCN2C(=O)C2CC2)on1 (stereo not given)
  8% | -22%
45. CN(C)CCNC(=O)c1cccc(-c2cnc3c(NC=O)cc(-c4cccs4)cn23)c1
  ? | 13%
46. O=C(CNc1cc(S(=O)(=O)N2CCOCC2)ccc1N1CCCC1)Nc1ccc(Cl)cc1
  -21% | 10%
47. COc1ccc(NC(=O)C2Cc3c(-c4ccc(NC(C)=O)cc4)ccnc3O2)cc1 (stereo not given)
  5% | -12%
48. NC(c1csc(NC(=O)Nc2ccccc2Cl)n1)C1CCCCC1 (stereo not given)
  -18% | -23%
49. Cc1csc(N=Cc2ccc([N+](=O)[O-])o2)n1
  -17% | -30%
50. COc1ccc(S(=O)(=O)N2Cc3ccccc3-n3nncc3C2)cc1
  -6% | 0%
51. O=[N+]([O-])CC(c1ccccc1)c1c[nH]c2ccccc12 (stereo not given)
  -4% | -5%
52. CCN(C(=O)CSc1nc2ccc([N+](=O)[O-])cc2s1)c1c(N)n(Cc2ccccc2)c(=O)[nH]c1=O
  -13% | -13%
53. C[C@H]1COc2cc(N(C)CCO)ccc2S(=O)(=O)N1
  1% | -16%
54. Cc1ccc(NC(=O)C2(C)CCN2C(=O)Cc2cc(F)ccc2F)cc1 (stereo not given)
  0%[18.4 µM] | 0%
55. Cc1ccc2nc3n(c(=O)c2c1)-c1cc2ccccc2cc1C(=O)NC3CC(C)C (stereo not given)
  12% | 0%
56. C[C@H]1CN([C@@H](C)CO)S(=O)(=O)c2ccc(C#Cc3ccccn3)cc2O[C@@H]1CN(C)C(=O)C1CC1
  -16% | 65%[activator]
57. COC(=O)c1sccc1S(=O)(=O)Nc1ccc(C(O)(C(F)(F)F)C(F)(F)F)cc1
  -4% | 29%
58. CCN(CC)CCn1c(=S)[nH]c2cc(C(=O)NCCc3ccc(OC)c(OC)c3)ccc2c1=O
  -5% | -19%
59. CC(OC(=O)c1nc(Cl)ccc1Cl)C(=O)NCc1ccccc1 (stereo not given)
  -7% | -20%
60. COc1ccc(-c2nc3ccc(Br)cn3c2Cc2cccc(F)c2)cc1OC
  -15% | -5%

(listing goes on)
Values run as follows: RE007 growth inh | StopGo reporter
61. CCCCOCCCNC(=O)C[C@@H]1C[C@@]2(C(=O)OCC)CCCC=C2N(CCC2=CCCCC2)C1=O
  -18% | -13%
62. CC[C@H](C)[C@H]1CNC(=S)N1CC1CCN(CC2CCC(C)CC2)CC1 (stereo not given in full)
  -22% | -25%
63. CC(=O)Nc1cc(-c2cccc(C(=O)NCCO)c2)cn2c(-c3cccc(C(F)(F)F)c3)cnc12
  -14% | -20%
64. CC(C)(C)c1ccc(C(O)c2ncc(-c3ccccc3)[nH]2)cc1 (stereo not given)
  -11%[18.4 µM] | 33%[activator]
65. CN(Cc1ccccc1)C(=O)Nc1ccc(Cl)cc1
  9% | 24%
66. O=[N+]([O-])c1ccc(COc2ccccc2CN2CCCCC2)cc1
  -27% | -15%
67. O=C(CNc1cc(S(=O)(=O)N2CCOCC2)ccc1N1CCCC1)Nc1ccc(Cl)cc1F
  22% | -7%
68. COc1cc(C=C2NC(=O)NC2=O)ccc1O
  -13% | -1%
69. CNC(=O)C[C@H]1C(=O)N(c2ccccc2)C[C@@H]1CSC
  -24% | -15%
70. CC(=O)c1ccc(OCCCC(=O)OCC(=O)N2CCN(S(=O)(=O)c3ccc(C)cc3C)CC2)cc1
  8% | -17%
71. CC(=O)N1CCCc2cc(S(=O)(=O)N(C)CC(=O)Nc3ccccc3)ccc21
  -8% | ?
72. Fc1cccc(Cc2c(-c3cccc(Cl)c3)nc3ccc(Cl)cn23)c1
  -7% | 30%[activator]
73. CCCCn1nnnc1C(c1ccccc1)N1CCN(c2cccc(C(F)(F)F)n2)CC1 (stereo not given)
  14% | -17%
74. O=C1C=C(OCCF)CC(c2ccc(Br)cc2)O1 (stereo not given)
  -9% | -11%
75. C[C@@H]1CN([C@@H](C)CO)C(=O)CCCn2nncc2CO[C@H]1CN(C)S(C)(=O)=O
  -11% | -19%
76. CC1(C(=O)NS(=O)(=O)c2ccc(Cl)cc2)CCN1C(=O)c1ccccc1CCc1ccccc1 (stereo not given)
  7% | -13%
77. Cc1ccc(C(O)c2ncc(-c3ccccc3C(F)(F)F)[nH]2)cc1F (stereo not given)
  1%[18.4 µM] | 20%
78. O=C(NCc1ccc(C(F)(F)F)cc1)c1cccc2c(-c3cccnc3)coc12
  -25% | -22%
79. CN(C)c1nc(N)nc2c1ncn2C1OC(CO)CC1O (stereo not given)
  15%[18.4 µM] | -13%
80. CCOC1=C2[C@@H](CN(S(=O)(=O)c3ccc(C)cc3)[C@H]2c2ccccc2F)[C@H]2C(=O)NC(=O)[C@H]2C1
  2% | 38%[activator]
81. Cc1ccc(NC(=O)CNc2cccc(Br)c2)cc1S(=O)(=O)N1CCOCC1
  10% | -26%
82. CN(C)c1ncnc2c1ncn2[C@H]1CN(Cc2ccncc2)C[C@@H](CO)O1
  2% | -7%
83. Cc1cc2nc(-c3ccccc3)c(Cc3ccccc3)n2c(C)c1Br
  -21% | 8%
84. O=S(=O)(c1ccc(F)cc1)c1nc(-c2ccco2)oc1NCCCn1ccnc1
  13% | 26%
85. Cc1ccc(C(=O)N(Cc2nnc(-c3ccccc3Cl)o2)C2CC2)o1
  15% | 22%
86. CC1(C(=O)N2CCCCC2)CCN1C(=O)C1(c2ccccc2)CC1 (stereo not given)
  4% | -18%
87. Cc1cc(C)c(C(O)c2ncc(-c3ccccc3F)[nH]2)c(C)c1 (stereo not given)
  -26% | 0%
88. Cc1oc(-c2ccccc2)nc1C(=O)OCC(=O)NCc1ccc(F)cc1
  -3% | -19%
89. CC1(C(=O)NS(=O)(=O)C2CC2)CCN(C(=O)c2ccccc2F)C1 (stereo not given)
  -1%[18.4 µM] | -17%
90. O=c1[nH][nH]c2c1[C@H](c1ccccc1)O[C@H](C1CCCCC1)C2
  -9% | -18%

Values by screen from the list.
Nos. 70 to 77 in StopGo reporter read -17%, ?, 30%[activator], -17%, -11%, -19%, -13%, 20%
Nos. 70 to 77 in RE007 growth inh read 8%, -8%, -7%, 14%, -9%, -11%, 7%, 1%[18.4 µM]

(continued)
Values run as follows: RE007 growth inh | StopGo reporter
91. O=C(C1CCCCC1)N1C[C@H](n2cc(-c3ccc(F)cc3)nn2)[C@@H](O)C[C@@H]1c1ccccc1
  23% | -6%
92. CCCCCCCCN1C(=O)[C@H](CC(=O)NCCCC)C[C@@]2(C(=O)OC)CCCCC=C12
  -3% | -8%
93. CC1(C(=O)NCc2ccc(C(F)(F)F)cc2)CCN1C1Cc2ccccc2C1 (stereo not given)
  6%[18.4 µM] | ?
94. O=C(Nc1nnc([C@@H]2C[C@H](O)[C@@H](CO)O2)s1)Nc1ccccc1Oc1ccccc1
  2%[18.4 µM] | 14%
95. COCCNC(=O)c1cc2c(Br)ccc(Br)c2nc1N
  -3% | 2%
96. COc1ccc(Cl)cc1Nc1nc(Cl)nc(NCCO)n1
  -15% | -18%
97. COCCN(C(=O)COC(=O)C1CCCCC1)c1c(N)n(Cc2ccccc2)c(=O)[nH]c1=O
  3% | -13%
98. CCOC(=O)C1(C)CCCCCN1C(=O)c1snnc1C (stereo not given)
  14% | -5%

3 entries from above, ordered by formula weight, low to high.
Values run as follows: RE007 growth inh | StopGo reporter
29. CCOc1ccc(C2=CC(c3ccccc3)n3ncnc3N2)cc1 (stereo not given)
  8% | -7%
54. Cc1ccc(NC(=O)C2(C)CCN2C(=O)Cc2cc(F)ccc2F)cc1 (stereo not given)
  0%[18.4 µM] | 0%
6. CC(=O)Nc1ccc(CC(=O)Nc2ccc3c(c2)OC2(CCCC2)O3)cc1
  7% | 19%

High-throughput results deposited in PubChem BioAssay by National Center for Advancing Translational Sciences (NCATS).
